Source: PubChem BioAssay (Broad Institute)
Vaccinia stage = blocks a specific stage of Vaccinia orthopoxvirus infection | Vaccinia-infected cells, mCherry/Venus stage reporter fluorescence; stronger effect = lower value; some inactives read as strong as hits | 0.01% of 89,000 active | activity change (mCherry), % (concentration not given with the values) | AID 1053133;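 active means mCherry past -33% and 40 or more points under the early reporter, replicates agreeing; inconclusive means past -33% without that gap or agreement; tested in A549 cells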;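 further: scaled between vehicle wells and reference inhibitor wells; 23 nL library stock went into each well; one replicate is shown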
Vaccinia stage Venus = recorded beside Vaccinia stage, whose call it bears; activity change (Venus), %; measured here: Venus reporter, other viral stage;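 negative = less Venus signal; first of two replicates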
Numbers without * were called inactive; ? = inconclusive; · = not tested or not shown. A portion of the library. The share of hits here may be higher or lower than overall.

SMILES	Vaccinia stage	Vaccinia stage Venus
COc1ccc(-c2ccc([C@H]3[C@H](C#N)N(C(=O)c4cccnc4)[C@H]3CO)cc2)cc1	-7	-15
COc1ccc(S(=O)(=O)N(C)C[C@H]2OCCCC[C@H](C)Oc3ccc(NC(=O)c4ccncc4)cc3C(=O)N([C@H](C)CO)C[C@H]2C)cc1	3	3
CCNC(=O)C[C@@H]1CC[C@@H]2[C@@H](COc3ccc(NC(=O)Cc4cccs4)cc3C(=O)N2C)O1	5	8
CCC(=O)N1[C@@H]2Cn3c(ccc(-c4cncnc4)c3=O)[C@H]1[C@@H](C(=O)N1CCc3ccccc3C1)[C@@H]2CO	-3	3
C[C@H](CO)N1C[C@H](C)[C@H](CN(C)C(=O)C2CCC2)Oc2ncc(C#Cc3cccc(F)c3)cc2C1=O	-14	-14
CC(C)NC(=O)Nc1ccc2c(c1)C(=O)N([C@@H](C)CO)C[C@@H](C)[C@@H](CN(C)C(=O)Nc1ccc(C(F)(F)F)cc1)O2	7	4
Cc1noc(C)c1S(=O)(=O)N(C)C[C@H]1Oc2ccc(NC(=O)Nc3ccc(F)cc3)cc2CC(=O)N([C@@H](C)CO)C[C@@H]1C	26	21
CCS(=O)(=O)Nc1ccc2c(c1)C(=O)N(C)[C@H]1CC[C@H](CC(=O)N[C@H]3CCN(Cc4ccccc4)C3)O[C@@H]1CO2	28	11
C[C@@H]1CCCCO[C@H](CN(C)C(=O)Nc2ccc(F)cc2)[C@H](C)CN([C@H](C)CO)C(=O)c2cc(NS(=O)(=O)c3ccccc3)ccc2O1	-12	-4
O=C(O)C[C@H]1CC[C@@H]2[C@H](COC[C@@H](O)CN2S(=O)(=O)c2ccc(F)cc2)O1	9	2
C/C=C/c1ccc2c(c1)O[C@@H](CN(C)S(=O)(=O)c1ccccc1)[C@@H](C)CN([C@@H](C)CO)S2(=O)=O	-34	-25
C[C@H](CO)N1C[C@H](C)[C@@H](CN(C)C(=O)Nc2ccccc2F)Oc2ncc(Br)cc2C1=O	12	7
Cc1cc(C(=O)Nc2cccc3c2O[C@H](CN(C)S(=O)(=O)c2cn(C)cn2)[C@H](C)CN([C@H](C)CO)C3=O)n(C)n1	7	-11
CC(C)NC(=O)Nc1ccc2c(c1)C(=O)N([C@@H](C)CO)C[C@@H](C)[C@H](CN(C)C(=O)Cc1ccccc1)OCCCC[C@H](C)O2	-4	-2
C[C@@H]1C=C(C(=O)N2CCCCCCC2)O[C@H](OCc2ccc(CO)cc2)C1	23	13
C[C@@H]1CN([C@H](C)CO)C(=O)c2cc(NC(=O)CCN3CCOCC3)ccc2O[C@@H]1CN(C)C(=O)Nc1ccccc1	32	17
C[C@H](CO)N1C[C@H](C)[C@@H](CN(C)Cc2ccc(Cl)c(Cl)c2)Oc2ccc(NC(=O)CCCN(C)C)cc2CC1=O	?	·
COc1ccc(-c2cnc3c(c2)C(=O)N([C@@H](C)CO)C[C@@H](C)[C@@H](CN(C)C(=O)Cc2cccnc2)O3)cc1	-30	-18
COCC(=O)Nc1ccc2c(c1)[C@@H]1C[C@@H](CC(=O)N[C@@H](C)c3ccccc3)O[C@H](CO)[C@@H]1O2	8	6
CO[C@H]1CN(C)C(=O)c2ccc(NC(=O)NC(C)C)cc2OC[C@H](C)N(C(=O)CN(C)C)C[C@@H]1C	9	16
O=C(NC[C@H]1CC[C@H]2[C@H](CN2Cc2ccc(Oc3ccccc3)cc2)O1)C1CCOCC1	5	-1
CCCN(C)C[C@@H]1Oc2ncc(-c3cccc(C(=O)N(C)C)c3)cc2C(=O)N([C@@H](C)CO)C[C@@H]1C	31	11
COc1ccc(CN(C)C[C@@H]2Oc3ccc(NC(=O)CCN4CCOCC4)cc3C(=O)N([C@H](C)CO)C[C@H]2C)cc1	10	7
CCCC#Cc1cnc2c(c1)C(=O)N([C@H](C)CO)C[C@@H](C)[C@H](CN(C)C(=O)C1CCOCC1)O2	29	25
CN1CCN(C(=O)C[C@H]2CC[C@H](NS(=O)(=O)c3cccc(F)c3)[C@@H](CO)O2)CC1	8	16
COc1ccc(-c2ccc3c(c2)[C@@H]2[C@@H](CCN2S(=O)(=O)c2ccc(OC)cc2)[C@@H](CO)N3C)cc1	-33	-24
C[C@@H]1CN([C@H](C)CO)C(=O)c2cc(NC(=O)CCCN(C)C)ccc2O[C@@H]1CN(C)C(=O)Nc1cccc2ccccc12	13	7
O=C(C1CCOCC1)N1CC(=O)N2[C@H](CO)[C@@H](c3ccc(C#Cc4cccc(F)c4)cc3)[C@H]2C1	-19	-32
COC(=O)C[C@@H]1CC[C@H]2[C@@H](COC[C@H](O)CN2S(=O)(=O)c2ccccc2C)O1	8	11
CC(=O)NC[C@@H]1[C@@H](c2ccc(-c3ccccc3)cc2)[C@@H](CO)N1C(=O)C1CCC1	-3	-3
CC(C)C#Cc1ccc2c(c1)O[C@H](CN(C)C(=O)CN(C)C)[C@@H](C)CN([C@H](C)CO)S2(=O)=O	-31	-19
CCC(=O)Nc1ccc2c(c1)C(=O)N(C)[C@H]1CC[C@@H](CC(=O)NCCOC)O[C@@H]1CO2	6	8
COc1ccccc1-c1cnc2c(c1)C(=O)N([C@@H](C)CO)C[C@@H](C)[C@@H](CN(C)Cc1cccc(F)c1)O2	-27	-17
C[C@@H]1CN([C@@H](C)CO)C(=O)c2cc(-c3cncnc3)cnc2O[C@H]1CN(C)C(=O)Cc1ccccn1	8	11
CN1CCN(C(=O)[C@H]2[C@H](CO)[C@H]3Cn4c(ccc(-c5ccncc5)c4=O)[C@H]3N2CC2CC2)CC1	23	17
C[C@@H]1CCCCO[C@@H](CN(C)S(=O)(=O)c2ccc(Cl)cc2)[C@H](C)CN([C@H](C)CO)C(=O)c2cc(NC(=O)Nc3ccc(F)cc3)ccc2O1	-16	-10
C[C@@H]1CN([C@H](C)CO)C(=O)c2cc(NC(=O)CCCN(C)C)ccc2O[C@@H]1CN(C)C(=O)Nc1ccccc1	25	29
COc1ccc2c3c([nH]c2c1)[C@@H](CO)N(Cc1cccc(F)c1)CC31CCN(Cc2ccccn2)CC1	-5	-1
Cc1ccc(S(=O)(=O)N(C)C[C@H]2Oc3ncc(Br)cc3C(=O)N([C@H](C)CO)C[C@H]2C)cc1	-8	-6
COc1ccc(S(=O)(=O)N[C@H]2CC[C@H](CCn3cc(C(C)C)nn3)O[C@@H]2CO)cc1	-1	2
COc1ccccc1-c1ccc([C@@H]2[C@H]3CN(C(=O)c4cccnc4)CCCCN3[C@H]2CO)cc1	-10	-10
Cc1ccc(S(=O)(=O)N(C)C[C@H]2Oc3cc(C#Cc4ccncc4)ccc3S(=O)(=O)N([C@@H](C)CO)C[C@H]2C)cc1	-46*	2.4*
C[C@@H]1CN([C@H](C)CO)C(=O)c2cccc(N(C)C)c2O[C@@H]1CN(C)C(=O)Nc1ccc(C(F)(F)F)cc1	-6	7
COc1cccc(-c2ccc([C@@H]3[C@@H](C#N)N(C(=O)Cc4ccccc4)[C@@H]3CO)cc2)c1	1	2
CN(C)C(=O)c1ccc(-c2ccc(C3[C@@H]4CN(C(=O)Cc5ccncc5)C[C@H]3N4)cc2)cc1 (stereo partly drawn)	24	14
COc1ccccc1S(=O)(=O)N(C)C[C@H]1Oc2cc(/C=C/c3ccccc3)ccc2S(=O)(=O)N([C@@H](C)CO)C[C@@H]1C	-6	-6
C[C@@H]1CCCCO[C@H](CN(C)C(=O)NC2CCCCC2)[C@@H](C)CN([C@@H](C)CO)C(=O)c2cc(NC(=O)Cc3ccccc3)ccc2O1	?	·
O=C(O)C[C@H]1CC[C@H](NC(=O)c2ccncc2)[C@@H](CO)O1	13	8
COc1ccc(S(=O)(=O)Nc2ccc3c(c2)CC(=O)N([C@@H](C)CO)C[C@@H](C)[C@@H](CN(C)S(=O)(=O)c2cccs2)O3)cc1	6	9
Cc1noc(C)c1NC(=O)N(C)C[C@@H]1OCCCC[C@H](C)Oc2ccc(NC(=O)Cc3ccccc3)cc2C(=O)N([C@H](C)CO)C[C@@H]1C	20	7
CN(C)CC#Cc1ccc([C@@H]2[C@H](CO)N3CCCCN(C(=O)Cc4ccccn4)C[C@@H]23)cc1	30	21
CO[C@H]1CN(C)C(=O)c2cc(NC(=O)Nc3ccc(Cl)cc3)ccc2OC[C@@H](C)NC[C@@H]1C	-35	-18
C[C@H]1CN([C@@H](C)CO)C(=O)c2cccc(NS(=O)(=O)c3cn(C)cn3)c2O[C@H]1CN(C)Cc1ccc(Cl)c(Cl)c1	5	-7
C[C@@H]1CN([C@H](C)CO)C(=O)Cc2cc(NC(=O)C3CCCCC3)ccc2O[C@@H]1CN(C)C(=O)Nc1ccc2c(c1)OCO2	7	9
C[C@H]1CN([C@@H](C)CO)S(=O)(=O)c2ccc(-c3cncnc3)cc2O[C@@H]1CN(C)C(=O)NC1CCCC1	13	1
CC(C)C#Cc1cnc2c(c1)C(=O)N([C@H](C)CO)C[C@@H](C)[C@@H](CN(C)C(=O)CCN1CCCCC1)O2	-5	0
CO[C@@H](CN(C)C(=O)c1ccccc1F)[C@H](C)CN([C@H](C)CO)S(=O)(=O)c1ccc(F)cc1	19	16
Cc1ccc(S(=O)(=O)N(C)C[C@H]2Oc3ccc(NS(=O)(=O)c4ccc(F)cc4)cc3CC(=O)N([C@H](C)CO)C[C@@H]2C)cc1	-25	-13
C[C@@H]1CN([C@H](C)CO)C(=O)c2cccc(NC(=O)C3CCOCC3)c2O[C@H]1CN(C)C(=O)Nc1ccc(F)cc1	14	8
COc1ccccc1CNC(=O)C[C@@H]1C=C[C@@H](NC(=O)CC2CC2)[C@@H](CO)O1	6	14

Two entries from above in another layout:
| structure | Vaccinia stage | Vaccinia stage Venus |
| --- | --- | --- |
| C[C@@H]1CN([C@H](C)CO)C(=O)c2cccc(NC(=O)C3CCOCC3)c2O[C@H]1CN(C)C(=O)Nc1ccc(F)cc1 | 14 | 8 |
| C[C@H]1CN([C@@H](C)CO)S(=O)(=O)c2ccc(-c3cncnc3)cc2O[C@@H]1CN(C)C(=O)NC1CCCC1 | 13 | 1 |

(more compounds)
SMILES	Vaccinia stage	Vaccinia stage Venus
C[C@H](CO)N1C[C@H](C)[C@H](CN(C)S(=O)(=O)c2cccs2)OCCCC[C@H](C)Oc2ccc(NS(=O)(=O)c3ccc(F)cc3)cc2C1=O	-34	-23
C=CC[C@@]1(C(=O)N2CCOCC2)N=C(c2ccc(OCCCO)cc2)O[C@@H]1c1ccccc1	14	9
C[C@H]1CN([C@@H](C)CO)C(=O)c2cc(C3=CCCC3)cnc2O[C@H]1CN(C)C(=O)Cc1ccncc1	18	21
COc1ccc(CNC(=O)C[C@@H]2CC[C@@H](NC(=O)c3ccc4c(c3)OCO4)[C@H](CO)O2)cc1	1	-4
CO[C@@H]1CN(C)C(=O)c2cc(NC(C)=O)ccc2OC[C@H](C)N(Cc2cccc(F)c2)C[C@@H]1C	0	-2
CC(C)NC(=O)Nc1ccc2c(c1)C(=O)N(C)[C@@H]1CC[C@@H](CC(=O)NCc3ccc(F)cc3)O[C@@H]1CO2	3	1
C[C@H]1CN([C@@H](C)CO)C(=O)c2cc(C#Cc3ccccc3F)cnc2O[C@@H]1CN(C)C(=O)C1CC1	19	8
C[C@@H]1CN([C@H](C)CO)C(=O)CCCn2nncc2CO[C@@H]1CN(C)C(=O)Nc1cccc(F)c1	27	11
C[C@@H]1CN([C@@H](C)CO)C(=O)Cc2cc(N(C)C)ccc2O[C@@H]1CN(C)S(=O)(=O)c1ccccc1	5	0
Cc1noc(C)c1NC(=O)Nc1cccc2c1O[C@@H](CN(C)Cc1ccc(-c3ccccc3)cc1)[C@H](C)CN([C@@H](C)CO)C2=O	9	-3
CCCNC(=O)N1CC2(CN(C(=O)COC)C2)c2c(n(C)c3cc(OC)ccc23)[C@@H]1CO	27	8
CS(=O)(=O)N1Cc2cc(C(=O)NCC3CCCCC3)nc(-c3cccc(-c4cccnc4)c3)c2[C@@H]1CCO	?	·
Cc1ccccc1-c1ccc([C@H]2[C@@H](CO)N3CCCCN(C(=O)Cc4ccccn4)C[C@H]23)cc1	-32	-32
O=C(C[C@H]1CC[C@H]2[C@@H](COC[C@H](O)CN2C(=O)Nc2cc(Cl)cc(Cl)c2)O1)NCC1CCCCC1	-31	-7
Cc1noc(C)c1NC(=O)Nc1cccc2c1O[C@@H](CN(C)C(=O)Nc1ccc(C(F)(F)F)cc1)[C@H](C)CN([C@H](C)CO)C2=O	0	8

Ordered by molecular weight (lowest first): 10 of the compounds above
SMILES	Vaccinia stage	Vaccinia stage Venus
COC(=O)C[C@@H]1CC[C@H]2[C@@H](COC[C@H](O)CN2S(=O)(=O)c2ccccc2C)O1	8	11
CN1CCN(C(=O)C[C@H]2CC[C@H](NS(=O)(=O)c3cccc(F)c3)[C@@H](CO)O2)CC1	8	16
CCCNC(=O)N1CC2(CN(C(=O)COC)C2)c2c(n(C)c3cc(OC)ccc23)[C@@H]1CO	27	8
CCNC(=O)C[C@@H]1CC[C@@H]2[C@@H](COc3ccc(NC(=O)Cc4cccs4)cc3C(=O)N2C)O1	5	8
C[C@H](CO)N1C[C@H](C)[C@H](CN(C)C(=O)C2CCC2)Oc2ncc(C#Cc3cccc(F)c3)cc2C1=O	-14	-14
CC(C)NC(=O)Nc1ccc2c(c1)C(=O)N(C)[C@@H]1CC[C@@H](CC(=O)NCc3ccc(F)cc3)O[C@@H]1CO2	3	1
CCS(=O)(=O)Nc1ccc2c(c1)C(=O)N(C)[C@H]1CC[C@H](CC(=O)N[C@H]3CCN(Cc4ccccc4)C3)O[C@@H]1CO2	28	11
Cc1ccc(S(=O)(=O)N(C)C[C@H]2Oc3cc(C#Cc4ccncc4)ccc3S(=O)(=O)N([C@@H](C)CO)C[C@H]2C)cc1	-46*	2.4*
Cc1noc(C)c1NC(=O)Nc1cccc2c1O[C@@H](CN(C)Cc1ccc(-c3ccccc3)cc1)[C@H](C)CN([C@@H](C)CO)C2=O	9	-3
Cc1ccc(S(=O)(=O)N(C)C[C@H]2Oc3ccc(NS(=O)(=O)c4ccc(F)cc4)cc3CC(=O)N([C@H](C)CO)C[C@@H]2C)cc1	-25	-13
